miR-21 FLuc = qHTS Assay for Modulators of miRNAs and/orActivators of miR-21; HeLa miR-21 FLuc reporter, luciferase, 48 h; Potency, µM (top dose mostly 38.3 µM), without a hit: top-dose reporter change, positive = more light; 340,000 tested, under 10 active; AID 2288, 2010; active = well fitted rising curve with a large enough effect; inconclusive = small, poorly fitted or top-dose-only effect; inactive = no such curve, though single readings can be large or run the other way;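 further: % of control where 0% means no effect; miR-21 action dims this reporter so a rising signal means less miR-21 action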
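Using DMEM plus 10% FBS, HeLa miR-21-FLuc cells are incubated with test compounds (final up to about 40uM) for 48 hours; firefly luciferase signal is then imaged following reagent-mediated lysis.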
Rango release inh = qHTS Assay for Inhibitors of RanGTP induced Rango (Ran-regulated importin-beta cargo) - Importin beta complex dissociation | Snurportin-1 (Homo sapiens) + GTP-binding nuclear protein Ran (Homo sapiens) + Importin … | Biochemical FRET Rango-importin beta, RanGTP-induced dissociation | Potency, µM (titrated, usually from 46.1 µM), without a hit: at the highest dose activity change, negative = inhibition | 340,000 compounds, 0.071% hits; active means falling FRET ratio curve, often poorly fitted, with flat reads before Ran was added; inconclusive means other falling curves, or compound fluorescence or quenching; inactive means flat or rising ratio curve;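 further: potency means the concentration at half of the fitted maximal effect; % of control where 0% means no effect; nearly all actives have a fitted effect of over 45% in size; -100% = wells without RanGTP and RCC1; the record marks most hits as doubtful in a second field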
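Two FRET readings bracket the reaction: one 5 min after compound meets Rango–importin beta, another 45 min after RanGTP-RCC1 (0.6 uM Ran, 0.2 uM RCC1, 2 mM GTP) is added. Only the second defines inhibition.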
Rango-impB inh = qHTS Assay for Inhibitors of Rango (Ran-regulated importin-beta cargo) - Importin beta complex formation | AID 540263, 2011 | Rango CFP/YFP FRET sensor + importin beta, 45 min | 340,000 compounds, 0.031% hits | Importin subunit beta-1 (Homo sapiens), Q14974 | Potency, µM (top dose mostly 92.2 µM), without a hit: top-dose inhibition of complex formation; active = rising FRET ratio curve, often small or poorly fitted; inconclusive = mostly compound fluorescence or quenching in the first reads; inactive = flat curves in all reads;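 further: potency means the concentration at half of the fitted maximal effect; 0% = DMSO wells and 100% = buffer wells lacking importin beta; nearly all actives have a fitted effect of over 15% in size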
Target sequence (Q14974 whole entry, looked up): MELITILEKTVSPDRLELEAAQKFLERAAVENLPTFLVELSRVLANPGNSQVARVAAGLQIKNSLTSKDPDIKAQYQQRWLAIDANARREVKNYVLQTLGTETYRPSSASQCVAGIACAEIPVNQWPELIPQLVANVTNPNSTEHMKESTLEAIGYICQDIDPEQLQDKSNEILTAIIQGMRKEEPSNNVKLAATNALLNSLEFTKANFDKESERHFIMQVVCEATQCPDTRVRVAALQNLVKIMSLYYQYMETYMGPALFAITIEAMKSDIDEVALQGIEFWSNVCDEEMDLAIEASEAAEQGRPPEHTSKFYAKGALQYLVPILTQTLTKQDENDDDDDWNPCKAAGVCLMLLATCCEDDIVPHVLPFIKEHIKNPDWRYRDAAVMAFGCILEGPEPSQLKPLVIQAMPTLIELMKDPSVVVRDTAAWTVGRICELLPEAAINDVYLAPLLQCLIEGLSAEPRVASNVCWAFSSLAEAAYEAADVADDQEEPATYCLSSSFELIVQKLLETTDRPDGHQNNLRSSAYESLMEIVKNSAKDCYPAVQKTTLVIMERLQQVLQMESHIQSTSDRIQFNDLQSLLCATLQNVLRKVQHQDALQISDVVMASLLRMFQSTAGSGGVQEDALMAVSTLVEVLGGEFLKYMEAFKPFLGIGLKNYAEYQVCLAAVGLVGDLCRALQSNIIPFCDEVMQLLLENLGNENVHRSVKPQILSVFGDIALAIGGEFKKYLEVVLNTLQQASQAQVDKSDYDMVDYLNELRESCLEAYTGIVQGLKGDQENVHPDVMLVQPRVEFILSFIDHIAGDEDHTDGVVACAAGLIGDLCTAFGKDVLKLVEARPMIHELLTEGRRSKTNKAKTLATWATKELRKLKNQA
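Inhibition scored from the CFP 486 nm/YFP 530 nm FRET ratio 45 min after adding 0.125 microM importin beta to 50 nM Rango biosensor preincubated 5 min with compound (room temperature, PBS with DTT, Tween-20, BSA). No-importin wells as positive control.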
GLA inh pH 4.5 = qHTS Assay for Inhibitors of Human alpha-Galactosidase at pH 4.5 | Alpha-galactosidase A (Homo sapiens), P06280 | purified enzyme, 4-MU-alpha-Gal fluorescence, pH 4.5 | activity change, negative = inhibition, % at 105 µM | 230,000 tested, under 10 active; inconclusive = small, poorly fitted or top-dose-only inhibition, or a rising curve; inactive = flat fitted curve, though single readings scatter; no compound was filed as active;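 further: 0% = full activity with enzyme and -100% = basal without enzyme; dose as in the result columns while the protocol names 77 µM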
Numbers without * were called inactive; ? = inconclusive; . = not tested or not shown.

Value order – miR-21 FLuc, Rango release inh, Rango-impB inh, GLA inh pH 4.5
Cc1ccc(/C=N/NC(=O)Nc2ccccc2)o1
    -55.0%, 2.5%, -0.9%, -5.1
Cc1ccc(/C=N/n2c(C)n[nH]c2=S)o1
    -0.8%, 0.7%, -5.0%, 5.7
NS(=O)(=O)c1ccc(CCNC(=O)CNC(=O)c2ccccc2F)cc1
    2.1%, -15.6%, -0.1%, .
NC(=S)Nc1nccc(-c2cccs2)n1
    -59.5%, -13.3%, 0.0%, 1.1
Cc1c(NC(=O)CN2C(=O)NC3(CCCCC3)C2=O)c(=O)n(-c2ccccc2)n1C
    0.1%, -1.3%, -1.7%, -1.5
O=[N+]([O-])c1ccc2c(c1)C(O)n1ncnc1S2 (stereo unspecified)
    1.0%, 0.4%, 0.3%, 0.1
CCNC(=S)NNC(=O)c1ccc(OC)cc1
    -14.3%, 6.9%, -0.1%, -27.9
CC1CC(C)CN(S(=O)(=O)N2CCCC(C(=O)NCCCN3CCOCC3)C2)C1 (stereo unspecified)
    -0.1%, -2.0%, 2.6%, .
COc1cccc(NC(=O)NNC(=O)c2ccc3c(c2)NC(=O)C(C)(C)O3)c1
    4.3%, -9.1%, -2.2%, .
COC(=O)C1=C(C)N(Cc2ccccc2)C(=NCc2cccc(C(F)(F)F)c2)N[C@H]1c1cccc(C(F)(F)F)c1
    0.4%, 28.0%, 1.1%, .
CC(C)CC1NC(=S)N(C2CCCCC2)C1=O (stereo unspecified)
    -10.9%, -18.8%, -6.2%, -7.4
COc1ccc(Cc2nc(N)nc(N)n2)cc1
    -0.6%, -5.4%, -1.8%, -5.0
CC(/C=C/c1ccccc1F)=N\NC(=O)c1cccc(F)c1
    -15.3%, 23.3%, 4.3%, 3.4
COCCCNC(=S)N/N=C/c1ccc(OC)c(Br)c1
    -4.9%, 12.9%, 3.0%, -2.0
Cc1csc2ncc(C(=O)N3c4ccccc4CC3C)c(=O)n12 (stereo unspecified)
    -4.9%, 0.3%, 1.2%, 0.1
Nc1ccc(C(=O)N2N=C(c3ccc(F)cc3)CC2(O)C(F)(F)F)cc1 (stereo unspecified)
    -10.9%, 0.3%, 1.7%, .
Cc1ccc(OCc2ccc(C(=O)Nc3nccs3)o2)cc1C
    -32.8%, -2.5%, -1.0%, 10.6
O=C1N(Cc2cccc(Cl)c2)C[C@@H]2C[C@@H](c3ccccn3)N3CCC[C@@]123
    -2.8%, -4.2%, -1.1%, 1.1
O=C(NNC(=O)c1cc(C(F)(F)F)cc(C(F)(F)F)c1)c1ccc(Cl)cc1
    6.5%, 8.0%, 2.1%, -9.8
C=CCn1c(SCC(=O)Nc2nc3ccccc3s2)nc(O)c(CC)c1=O
    -27.6%, 2.7%, -4.6%, -2.6
CCN1CCN(C(c2cccs2)C(C)NC(=O)c2ccccc2)CC1 (stereo unspecified)
    -8.2%, 1.5%, -0.9%, 0.4
O=c1oc(/C=C/c2ccco2)nc2sc3c(c12)CCC3
    -2.3%, -5.7%, 3.4%, 6.5
CCOC(=O)CC[C@H](NC(=O)Cn1cc(C)c(=O)[nH]c1=O)C(=O)OCC
    ., 11.1%, -0.2%, .
CC(C)CNS(=O)(=O)c1ccc(CCC(=O)NC2CCCC2)cc1
    2.4%, -3.7%, 0.4%, 3.2
Cc1ccc(C(=O)NNC(=O)OC(C)(C)C)c(Cl)c1
    -30.7%, 14.2%, -2.8%, -0.5
Cc1occc1-c1nnc(SCC(=O)NCCc2ccccc2)n1C(C)c1ccccc1 (stereo unspecified)
    0.5%, 2.8%, -0.3%, 4.5
O=C(NCc1ccccc1)N(Cc1nc2ccccc2c(=O)[nH]1)C1CCCC1
    -0.2%, 3.9%, 3.4%, 6.7
COc1cc(C(=O)N[C@@H](C)C(=O)N2CCC3(CC2)NCCc2[nH]cnc23)cc(OC)c1OC
    -3.0%, 12.8%, 2.1%, .
COc1ccc(/C=N/NC(=O)CC(=O)NCc2cccnc2)c(OC)c1
    0.1%, 3.0%, -0.2%, 5.6
COc1cc(OC)cc(C(=O)NCC2CCCN(C(=O)c3oc(C)cc3C)C2)c1 (stereo unspecified)
    -3.7%, 1.0%, -2.6%, .

One compound at a time, as listed above. Values in the order: miR-21 FLuc | Rango release inh | Rango-impB inh | GLA inh pH 4.5
`Cc1ccc(/C=N/NC(=O)Nc2ccccc2)o1` across the screens: -55.0% | 2.5% | -0.9% | -5.1
`CC(C)CNS(=O)(=O)c1ccc(CCC(=O)NC2CCCC2)cc1` across the screens: 2.4% | -3.7% | 0.4% | 3.2
`C=CCn1c(SCC(=O)Nc2nc3ccccc3s2)nc(O)c(CC)c1=O` across the screens: -27.6% | 2.7% | -4.6% | -2.6
`Nc1ccc(C(=O)N2N=C(c3ccc(F)cc3)CC2(O)C(F)(F)F)cc1` (stereo unspecified) across the screens: -10.9% | 0.3% | 1.7% | .
`CC(/C=C/c1ccccc1F)=N\NC(=O)c1cccc(F)c1` across the screens: -15.3% | 23.3% | 4.3% | 3.4

Next part.
Value order – miR-21 FLuc, Rango release inh, Rango-impB inh, GLA inh pH 4.5
COc1cc(NC(=O)CN(C)S(=O)(=O)c2ccc(-c3ccc(=O)[nH]n3)s2)cc(OC)c1
    -9.6%, 29.7%, 4.6%, .
Cc1cccn2c(/C=N/OCc3cccc(F)c3)c(-c3ccc(Cl)cc3)nc12
    1.2%, -4.1%, -4.0%, -21.8
CC(C)(C)c1nnc2sc(SCCN3C(=O)c4ccccc4C3=O)nn2c1=O
    2.5%, -6.8%, -5.8%, 1.6
CC1(C)CC(=O)C=C(/C=C/c2ccccc2)C1
    ., 17.0%, -1.5%, .
COc1ccc(C)cc1NC(=O)CSc1cccc[n+]1[O-]
    ., 7.0%, -1.3%, .
CCOC(=O)c1cccnc1SCC(=O)NC(C)CC (stereo unspecified)
    -9.3%, 6.5%, -0.5%, -2.5
C#CCOCCOCCOCCNc1nc(N2CCN(C(=O)[C@H]([C@@H](C)CC)n3cc([C@@H](N)CO)nn3)CC2)nc(N2CCN(C(=O)[C@H](CCCCN)n3cc([C@@H](N)CC(C)C)nn3)CC2)n1
    1.5%, 2.2%, 2.3%, -3.9
FC(F)(F)c1cccc(Cn2nnnc2-c2cccc(C(F)(F)F)c2)c1
    -3.9%, 12.5%, -0.3%, -35.8
CCN(CC)S(=O)(=O)c1ccc(N2CCCC2)c(NS(=O)(=O)c2ccc(OC)cc2)c1
    -3.2%, -3.0%, -1.1%, -2.9
Cc1ccc(S[C@@H](CCN2CC[C@H](NC(=O)OCc3ccccc3)CCC2=O)c2ccccc2)cc1
    15.1%, -6.8%, -0.2%, .
COc1ccc(C(=O)N2CCCCCC2)cc1S(=O)(=O)N1CCOCC1
    4.4%, 0.4%, -0.6%, .
Cc1ccc(OCC(=O)N2CCN(C(=O)c3ccco3)CC2)cc1
    0.3%, -13.3%, 5.7%, -1.2
Cc1cc(=O)oc(C)c1C(=O)NCC1CCCO1 (stereo unspecified)
    -9.2%, 0.0%, -2.3%, -9.4
CCOC(=O)C1=CN(Cc2cccc(-c3cccnc3)c2)S(=O)(=O)N(C)C1C (stereo unspecified)
    ., ?, -3.8%, .
Cc1cc(NC(=O)CCC2COc3ccccc3O2)no1 (stereo unspecified)
    -13.6%, 8.9%, 1.9%, -2.1
COc1ccc(CCN2CC(C(=O)N3CCN(C(C)=O)CC3)CCC2=O)cc1 (stereo unspecified)
    -1.3%, -3.0%, -1.8%, .
Cc1ccc(S(=O)(=O)NCC(=O)NCCc2c[nH]c3ccccc23)cc1C
    -4.4%, -9.4%, -2.4%, .
CCOC(=O)C1=C(CSc2n[nH]c(N)n2)NC(=O)NC1C (stereo unspecified)
    -3.6%, 0.2%, -1.1%, -0.5
O=C(CCC(=O)N(CC(=O)NC1CCCC1)C1CCCCC1)Nc1ccccn1
    -27.3%, 23.6%, 3.4%, -4.8
CC[C@]12c3[nH]c4ccc(OC)cc4c3CCN1C(=O)C(CC(=O)NCC13CC4CC(CC(C4)C1)C3)C[C@@H]2C(=O)N1CCN(C(=O)C2CC2)CC1 (stereo partly specified)
    ., 9.5%, 1.8%, .
O=C(NCc1ccco1)c1ccccc1-c1nc(-c2ccc(F)cc2)no1
    -0.4%, 8.2%, 0.3%, -0.9
CC(C)(O)C#Cc1ccc(C(=O)N2CCN(C(=O)c3ccco3)CC2)cc1
    -4.3%, -4.1%, 1.7%, 7.7
Cc1cc(C(=O)OCC(=O)N2CC(=O)Nc3ccccc32)c(C)n1-c1ccc(F)cc1
    17.4%, 23.4%, 0.0%, 1.6
NCCCC[C@@H](C(=O)NCCCCCCCCCCC(=O)N1CCNCC1)n1cc(CCO)nn1
    ., 0.9%, -1.7%, .
CC(CO)NCC12CC3CC(CC(C3)C1)C2 (stereo unspecified)
    3.7%, 6.6%, -0.3%, 4.7
CN1CCN(S(=O)(=O)c2ccc3c(c2)NC(=O)C2CCCN32)CC1 (stereo unspecified)
    -1.4%, ?, ?, 3.7
Cc1sc2nc(CSc3n[nH]c(N)n3)[nH]c(=O)c2c1C
    0.0%, -17.9%, -4.5%, 2.8
CC1CCC2(CC1)NC(=O)N(CC(=O)Nc1cccc(S(=O)(=O)N3CCCC3)c1)C2=O (stereo unspecified)
    ., 17.9%, -3.0%, .
CCS(=O)(=O)N1CCCC(C(=O)N2CCc3ccccc3C2)C1 (stereo unspecified)
    -1.1%, -6.5%, -0.6%, -2.4
COC(=O)C(O)(CC(=O)Nc1cccc(SC)c1)C(F)(F)F (stereo unspecified)
    -4.3%, 0.1%, 0.1%, -10.5
Cc1ccccc1OCC(=O)Nc1sc(C(=O)Nc2cccc(C)c2C)c(C)c1C#N
    -9.2%, 5.6%, 7.6%, -3.8
Cc1cccc(C)c1NC(=S)N/N=C/c1ccc(C(=O)O)cc1
    -4.9%, 21.9%, -0.1%, 3.3
Nc1nnc(CC(=O)N/N=C/c2ccc([N+](=O)[O-])cc2)s1
    -0.2%, 2.6%, 0.0%, -6.1
Cc1ccc2cc3cc(C(=O)NCCCN4CCCC4)oc3nc2c1
    -7.3%, 8.6%, 1.6%, .
CSc1ccc(S(=O)(=O)N2CCC(C(=O)NCCN3CCOCC3)CC2)cc1
    4.4%, -8.1%, -0.6%, .
CO/N=C(/CS(=O)(=O)c1ccc(C)cc1)c1ccc(OC)cc1
    6.1%, -9.9%, 1.1%, 0.5
CCOC(=O)N1CCN(Cc2nc3ccc([N+](=O)[O-])cc3c(=O)n2-c2cccc(OC)c2)CC1
    8.2%, 8.5%, 65.1µM*, -4.6
Cc1noc(C)c1CSCC(=O)Nc1nc2c(F)cc(F)cc2s1
    ., ?, ?, .
NC1(C(=O)O)CSSC1
    ., -4.4%, 1.7%, .
Cc1ccc(S(=O)(=O)Nc2nonc2C)cc1
    -1.1%, 5.1%, ?, -1.0
CC1CCCC(C)N1C(=S)SCC(=O)O (stereo unspecified)
    2.5%, -3.9%, 0.4%, 6.6
CC(c1ccc(F)cc1)n1cc(S(=O)(=O)N2CCCC2)ccc1=O (stereo unspecified)
    ., 1.6%, -0.3%, .
CCNc1nnc(SCC(=O)N2c3ccccc3NC(=O)CC2C)s1 (stereo unspecified)
    ., 7.2%, 4.3%, .
Cc1nn(-c2ccccc2)c(Cl)c1C(=O)N1CCN(C)CC1
    -3.6%, 16.2%, -5.7%, 2.5
COC(=O)c1c(SCC(=O)NC2CCCCC2)[nH]c2ccccc2c1=O
    2.1%, ?, ?, .
CCn1c(C)cc(/C=C2/NC(=O)N(Cc3ccccc3F)C2=O)c1C
    -13.7%, -28.5%, ?, 0.8
CN(C(=O)Cn1cc(C(F)(F)F)cc(Cl)c1=O)C1CCS(=O)(=O)C1 (stereo unspecified)
    ., -3.9%, -2.1%, .
CC(C)(C)c1ccc(OCC(O)CSc2ncn[nH]2)cc1 (stereo unspecified)
    26.8%, -5.6%, 3.8%, 5.0

Screening results as filed in PubChem BioAssay.

This is a subset; rates above refer to the full screens.
